Screening results as filed in PubChem BioAssay.
gsp ag = qHTS for Agonist of gsp, the Etiologic Mutation Responsible for Fibrous Dysplasia/McCune-Albright Syndrome: qHTS; gsp mutant cells, cAMP HTRF, 30 min; control for the full effect not named in the record; Potency, µM (doses to about 76.9 µM), inactives show at the highest dose activation (cAMP increase), usual class: activators; 340,000 tested, 0.13% active; active = well fitted activation curve with a large enough effect; inconclusive = small, poorly fitted or top-dose-only effect, or another doubt; inactive = no such curve, though single readings can be large or run the other way; cell line not stated here;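 also: phosphodiesterase inhibitor Ro 20-1724 added with compounds to block cAMP breakdown; potency is read from the fitted curve at half-maximal effect; nearly all actives have a fitted effect of over 60% in size; about a fifth of the inactives were tested at one dose only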
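Cells stably selected in G418 were plated at 2000/well, grown 16-24 hr, then given compounds in DMSO with the PDE inhibitor […] (300 uM solution added) for 30 min at 37C; cAMP was read by HTRF.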
Six1-Eya2 inh = qHTS Assay for Inhibitors of the Six1/Eya2 Interaction; Homeobox protein SIX1 (Homo sapiens) + Protein phosphatase EYA2 (Homo sapiens), …; AlphaScreen GST-Six1/His-Eya2 binding, biochemical; hits give low values; control for the full effect not named in the record; activity change, % (no concentration beside the values); 360,000 tested, 0.56% active; AID 651725, 2012; in the data active = activity change below about -65%; inconclusive = about -30% to -65%; inactive = above about -30%; also: % is scaled to controls: 0 for no effect and ±100 for the full control effect; compound concentration not given in the record
Target sequence (O00167 whole entry, looked up): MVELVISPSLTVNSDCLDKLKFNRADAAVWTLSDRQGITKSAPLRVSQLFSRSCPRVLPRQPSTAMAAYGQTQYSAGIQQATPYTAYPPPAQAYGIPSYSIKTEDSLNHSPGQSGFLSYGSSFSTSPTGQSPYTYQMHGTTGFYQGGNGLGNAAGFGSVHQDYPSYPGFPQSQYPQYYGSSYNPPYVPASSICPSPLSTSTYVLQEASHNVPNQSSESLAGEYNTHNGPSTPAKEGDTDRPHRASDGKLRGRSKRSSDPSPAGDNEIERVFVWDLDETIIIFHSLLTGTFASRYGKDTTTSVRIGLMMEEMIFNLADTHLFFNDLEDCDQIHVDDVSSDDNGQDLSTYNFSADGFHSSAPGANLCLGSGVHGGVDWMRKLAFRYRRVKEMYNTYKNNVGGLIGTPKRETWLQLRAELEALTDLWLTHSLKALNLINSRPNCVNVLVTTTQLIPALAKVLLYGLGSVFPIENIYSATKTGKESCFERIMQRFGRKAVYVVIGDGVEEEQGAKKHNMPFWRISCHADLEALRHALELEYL
Target sequence (Q15475 whole entry, looked up): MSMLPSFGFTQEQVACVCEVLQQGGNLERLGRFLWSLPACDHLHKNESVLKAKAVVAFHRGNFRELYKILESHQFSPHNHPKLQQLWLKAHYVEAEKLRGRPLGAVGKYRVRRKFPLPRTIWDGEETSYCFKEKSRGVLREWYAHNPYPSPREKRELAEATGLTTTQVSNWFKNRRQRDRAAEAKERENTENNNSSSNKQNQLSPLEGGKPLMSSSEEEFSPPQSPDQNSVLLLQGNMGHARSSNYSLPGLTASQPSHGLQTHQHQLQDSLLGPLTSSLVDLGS
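AlphaScreen with GST-Six1 and His-Eya2 (5X mix: 250 nM and 500 nM), glutathione donor and nickel acceptor beads; buffer 50 mM Tris pH 8.0, 300 mM NaCl, 1 mM TCEP; 1 h at 37 C in the dark.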
CtBP-E1A inh = qHTS Assay for Inhibitors of the CtBP/E1A Interaction; activity change, % (no concentration beside the values); 340,000 tested, 0.49% active; AlphaScreen GST-E1A/His-CtBP binding, 1536-well; hits give low values; control for the full effect not named in the record; AID 651724, 2012; in the data active means activity change below about -65%; inconclusive means about -30% to -65%; inactive means above about -30%; also: % is scaled to controls: 0 for no effect and ±100 for the full control effect; compound concentration not given in the record
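Homogeneous bead-based format: GST-tagged E1A captured on glutathione donor beads, His-tagged CtBP on nickel acceptor beads; compounds precede bead addition by 2 h at 37 °C.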
gsp antag = qHTS for Antagonists of gsp, the Etiologic Mutation Responsible for Fibrous Dysplasia/McCune-Albright Syndrome: qHTS | 340,000 tested, 0.4% active | AID 624288, 2012 | Potency, µM (highest dose often 76.9 µM), for the others: at the top dose activity change, negative = inhibition, hits mostly inhibitors | gsp-mutant cells, cAMP HTRF, 30 min; control for the full effect not named in the record; active = falling curve of any shape with a large fitted effect; inconclusive = falling curve, mostly with a smaller effect; inactive = flat or rising curve; cell line not stated here;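 also: intracellular cAMP measured with PDE inhibitor Ro 20-1724 present during compound exposure; potency is read from the fitted curve at half-maximal effect; % is scaled to controls: 0 for no effect and ±100 for the full control effect; nearly all actives have a fitted effect of over 65% in size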
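G418-selected cells were plated in DMEM/10% FBS for 16-24 h at 37C, then treated with compounds plus the PDE inhibitor […] (300 uM solution added) for 30 min at 37C. Intracellular cAMP was measured by HTRF after 30 min lysis at room temperature.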
D2 agonist = Beta-Arrestin HTS for Positive Allosteric Modulators of the Human D2 Dopamine Receptor: Agonists. D(2) dopamine receptor (Homo sapiens), P14416. 360,000 tested, 0.084% active. DiscoveRx PathHunter D2 beta-arrestin, luminescence, 90 min; 100% = 57 uM dopamine signal. activation, % (test concentration not listed); in the data active = activation above about 40%; inconclusive = about 15% to 40%; inactive = below about 15%; also: compound concentration not given in the record; the text of the record calls up to 30% inactive
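DiscoveRx PathHunter D2 beta-arrestin cells (2,100/well) attached overnight, then compound-stimulated 90 min at 37 C in HBSS/10 mM HEPES/0.1% Tween-20 buffer; beta-galactosidase complementation read by luminescence after 1 h at ambient temperature. Dopamine 57 uM final (EC100) as control.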
D2 PAM = Beta-Arrestin HTS for Positive Allosteric Modulators of the Human D2 Dopamine Receptor: Potentiators; D(2) dopamine receptor (Homo sapiens), P14416; DiscoveRx D2 beta-arrestin cells, luminescence, 90 min; 100% = 57 uM dopamine signal; potentiation, % (no concentration beside the values); 360,000 tested, 0.23% active; AID 624464, 2012; active = potentiation of 50% or more; inconclusive = 30% to 50%; inactive = 30% or less;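 also: compound concentration not given in the record; tested on top of an EC20 dose of dopamine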
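PathHunter beta-arrestin assay in DiscoveRx D2 cells. Compounds were added with an EC20 of dopamine (50 nM final) for 90 min at 37 deg C. Luminescence was read 1 h after detection reagent, with 57 uM dopamine as the EC100 control.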
Active calls of the source: *; ? = inconclusive; · = no result given; [ ] = dose if it differs, or a comment.

#	Structure	gsp ag	Six1-Eya2 inh	CtBP-E1A inh	gsp antag	D2 agonist	D2 PAM
1	Cc1cc(OC(=O)c2ccc(C(C)(C)C)cc2)c([N+](=O)[O-])c(=O)[nH]1	-7%	6	·	2%	0.9	2
2	Cc1ccc(S(=O)(=O)NC(CC(C)C)C(=O)N2CCCCCCC2)cc1 (centres undefined)	52%[15.4 µM]	7	-1	2%	-1.7	-13
3	c1ccc(C2=NNC(c3ccccn3)=NN2)nc1	26%	-71*	-80*	9%	?	2
4	O=C(C1CCCN1S(=O)(=O)c1ccc(Cl)cc1)N1CCOCC1 (centres undefined)	-10%	8	0	6%	-1.7	2
5	CN(C)CCNC(=O)COc1cccc2c1OC(C)(C)C2	-7%[15.4 µM]	-4	-4	12%	-0.1	-11
6	COc1ccc(OC)c(/C=C/C(=O)NCCc2nc3ccccc3[nH]2)c1	-54%[inhibitor]	-3	-2	-10%	-1.0	-9
7	COc1ccc(CCC(C)N(C)Cc2ccccc2)cc1 (centres undefined)	11%	3	·	7%	-6.1	-46
8	COc1cccc(Nc2nc(C(N)Cc3ccc(C(F)(F)F)cc3)cs2)n1 (centres undefined)	·	-8	-7	·	4.8	0
9	Cc1ccc(S(=O)(=O)N2CCC(=O)N(CCOCc3cccc(F)c3)CC2)cc1	-3%	-2	6	-1%	3.5	1
10	Clc1ccc(OCc2nn3c(C4CCCCC4)nnc3s2)c(Cl)c1	0%	1	4	?	2.6	4
11	COc1cc(-c2nnc(-c3cc(-c4ccccc4)nc4ccccc34)o2)cc(OC)c1OC	6%[15.4 µM]	11	6	1%	-0.9	-6
12	CN(C1CCCCC1)S(=O)(=O)c1ccc(NC(=S)NC(=O)c2cccs2)cc1	21%	7	12	-11%	-6.3	-15
13	O=C(O)[C@@H]1Cc2ccccc2N1	-14%	-2	1	0%	-0.2	2
14	CCCCCc1nnc(NC(=O)c2ccc(N3CCCC3=O)cc2)s1	-16%	4	-1	7%	-2.8	-8
15	COc1ccccc1OCC(=O)Nc1ccc(Cl)cc1	-6%	4	9	-1%	-2.8	-17
16	CC[C@]12c3[nH]c4ccccc4c3CCN1C(=O)C(CC(=O)NCC13CC4CC(CC(C4)C1)C3)C[C@@H]2C(=O)N1CCN(C(=O)c2ccco2)CC1 (some centres undefined)	·	-3	-3	-11%	-2.9	·
17	Cc1ccc(C(=O)Oc2ccc(-c3nnco3)cc2)o1	12%[15.4 µM]	-11	-3	5%	-1.5	3
18	CC(C(=O)Nc1nnc(C2CC2)s1)N1C(=O)C2CC=CCC2C1=O (centres undefined)	-10%	0	10	6%	9.4	-1
19	O=C1C=C(NCc2ccc(Cl)cc2)CCC1	-8%	8	0	-19%	-1.3	-11
20	CN(C)S(=O)(=O)N1CCC(Oc2cccc(C(=O)NCCC3=CCCCC3)c2)CC1	-38%[inhibitor]	4	-8	35µM*	4.4	2
21	CCc1nc(-c2ccccc2)c2ccccn12	0%[15.4 µM]	4	-4	1%	-0.4	-3
22	COc1ccc(CCNC(=O)C2CCN(S(=O)(=O)c3c(C)noc3C)CC2)cc1OC	4%	7	7	12%	5.9	-7
23	O=C(Nc1ccccc1C(=O)NCCN1CCOCC1)c1ccco1	-138%[inhibitor]	6	3	0%	-0.5	-31
24	C=CCN1C(=O)S/C(=C\c2ccc3c(c2)n(C)c(=O)n3C)C1=O	0%	2	-14	-1%	-5.5	-14
25	C/C(=N\Nc1nc(C(C)(C)C)cs1)c1ccccc1	-17%	-5	·	-14%	8.6	-13
26	CC(C)C(=O)NNC(=O)C1CC1(c1ccccc1)c1ccccc1 (centres undefined)	-4%[15.4 µM]	-19	-18	0%	-3.5	-1
27	Cc1ccc(NC(=O)C(=O)NCC2CCN(C(=O)c3cccc([N+](=O)[O-])c3)CC2)cc1	-4%	-1	·	-5%	-0.8	-11
28	CN1N=C2c3ccccc3CCC2C1c1ccc(C(F)(F)F)cc1 (centres undefined)	2%	9	5	2%	-2.7	-1
29	O=C(CCC1=NS(=O)(=O)c2ccccc2N1)NC1CCCCCCC1	8%	3	-8	4%	-2.4	-26
30	CCCNC(=O)NC(=O)CSc1nnc(-c2ccncc2)n1CC	-2%	0	6	4%	1.8	-4

4 compounds out of the list above, ordered by the value under gsp antag, falling.
# | SMILES | gsp antag
30 | CCCNC(=O)NC(=O)CSc1nnc(-c2ccncc2)n1CC | 4%
28 | CN1N=C2c3ccccc3CCC2C1c1ccc(C(F)(F)F)cc1 (centres undefined) | 2%
26 | CC(C)C(=O)NNC(=O)C1CC1(c1ccccc1)c1ccccc1 (centres undefined) | 0%
25 | C/C(=N\Nc1nc(C(C)(C)C)cs1)c1ccccc1 | -14%

Following part:
#	Structure	gsp ag	Six1-Eya2 inh	CtBP-E1A inh	gsp antag	D2 agonist	D2 PAM
31	CCCCCCOc1cccc(N)c1	-21%	-1	7	10%	-0.9	-4
32	c1ccc(CCCCc2ccccn2)cc1	?	2	25	16%	-4.0	-6
33	COc1ccc(C(=O)COC(=O)[C@H](C)Nc2ccc(C(F)(F)F)cc2[N+](=O)[O-])cc1	-8%	-13	-9	6%	-3.6	-8
34	CCOC(=O)N1CCN(CC(=O)Nc2ccc(C)cc2)CC1	-23%	4	12	-1%	2.2	-11
35	O=C(CNc1ccc2c(c1)OCO2)N/N=C\c1ccccc1Cl	1%[15.4 µM]	-18	-24	2%	-2.1	7
36	Cc1ccc(C(=O)NCC(=O)OCN2C(=O)c3ccccc3C2=O)cc1C	5%	7	1	-3%	-2.1	-2
37	CCC(=O)NC(c1ccco1)c1cc(Cl)c2cccnc2c1O (centres undefined)	-6%	-80*	-90*	-1%	-8.0	-28
38	Fc1ccc(Nc2nc(NCc3ccccc3)nc3ccsc23)cc1	·	16	-4	·	0.9	-14
39	CCCCn1nc(C(=O)Oc2ccc3c(C)cc(=O)oc3c2)c2ccccc2c1=O	1%	2	2	-22%	-2.6	-5
40	O=C(CC(=O)c1ccccc1)Nc1cc(C(F)(F)F)ccc1Cl	-22%	2	9	-14%	-2.9	-17

Quoted from the listing.
Entry of entry 34 under Six1-Eya2 inh: 4
Entry of entry 40 under gsp ag: -22%

Other entries.
#	Structure	gsp ag	Six1-Eya2 inh	CtBP-E1A inh	gsp antag	D2 agonist	D2 PAM
41	CCC1CN(C(=O)NCc2ccccc2)c2cc(C)ccc2O1 (centres undefined)	-8%[15.4 µM]	-8	3	6%	0.5	-4
42	O=C(c1cc(S(=O)(=O)N2CCCCC2)ccc1N1CCOCC1)N1CCN(Cc2ccccc2)CC1	24%	7	0	-11%	0.0	-2
43	CCC(C)N(C(=O)c1csnn1)C(C(=O)NCc1ccc(F)cc1)c1ccccc1 (centres undefined)	-4%	2	8	-3%	-0.5	-4
44	CC(=O)C1C(c2ccc(Cl)cc2)NC(=O)NC1(O)C(F)(F)F (centres undefined)	-5%	13	-12	6%	-5.1	-6
45	N#Cc1ccccc1NC(=O)CN1CCN(c2ccccn2)CC1	-1%	-7	9	4%	7.9	-1
46	COc1cccc(CNc2nc3cc(-c4ccccc4)sc3c(=O)n2C)c1OC	·	0	-17	·	-2.5	-8
47	CC(c1ccccc1)N1C(=O)NC(NC(=O)c2cccnc2)(C(F)(F)F)C1=O (centres undefined)	1%	9	3	11%	1.5	0
48	CCOC(=O)C1CCCN(c2nc(C)nc3c2oc2ccccc23)C1 (centres undefined)	?	-3	1	?	0.9	1
49	O=C(NCCCCc1ccccc1)c1ccccc1Br	30%	4	·	9%	-9.9	-4
50	CCOC(=O)C1CCN(S(=O)(=O)c2ccc3c(c2)CC(=O)N3)CC1	-71%[inhibitor]	1	4	-1%	0.6	2
51	Cc1cc2ccccn2c1C(=O)c1ccc(N/N=C/c2ccc(C(=O)O)cc2)c([N+](=O)[O-])c1	-9%	-4	-11	-3%	-4.8	-9
52	CCOc1ccc(NC(=O)CN(C)C(=O)c2cn(-c3ccc(F)cc3)nc2-c2cccc(OC)c2)cc1OCC	?	-23	-8	?	-0.6	-30
53	CCOc1ccc(C(c2c(NC(=O)c3ccccc3)sc(C)c2C)N2CCN(C)CC2)cc1 (centres undefined)	4%	-14	-7	-4%	-3.9	-20
54	CC1CN(C2CCCCC2)C(=S)NC1=O (centres undefined)	-15%	7	3	3%	2.4	-2
55	O=C(NCc1nnnn1-c1ccc(F)cc1)c1ccc2c(c1)OCO2	-22%	-1	-4	·	-2.4	-17
56	CCOC(=O)Nc1ccc(S(=O)(=O)Nc2cc(C)on2)cc1	4%	-2	-7	-1%	0.4	-2
57	CC(=O)c1cccc(-n2c(CCC(=O)O)ccc2-c2cccs2)c1	0%	-9	-10	-15%	-2.2	-14
58	O=[N+]([O-])c1c(Nc2ccc(Br)cc2)ccc2nonc12	3%[15.4 µM]	-11	-8	0%	-4.4	2
59	COc1cc(C(=O)N2CCN(c3ccccc3OC)CC2)c([N+](=O)[O-])cc1OC	-4%[15.4 µM]	-9	-10	5%	-1.6	20
60	O=C(CN1C(=O)COc2ccc(Cl)cc21)N1CCc2ccccc21	24%	2	6	9%	0.3	-6
61	CCc1sc(C(=O)Nc2ccc(N3CCOCC3)cc2)cc1C	10%	-15	-15	-17%	2.6	-8
62	CC1CN(c2nc(-c3ccc(Br)cc3)nnc2-c2ccccc2)CC(C)N1 (centres undefined)	-2%[15.4 µM]	-12	-12	16%	-3.2	8
63	CCCCN=c1scc(-c2ccc3c(c2)NC(=O)CO3)n1N=C1CCCC1	7%	-29	-5	?	3.6	-2
64	CCOc1ccc(Cn2nnc(C(=O)Nc3cc(OC)cc(OC)c3)c2N)cc1	-55%[inhibitor]	-2	2	-14%	11	0
65	COc1cc(/C=N/n2cnnc2)ccc1OCCOc1ccccc1	-47%[inhibitor]	8	-5	-1%	0.7	3
66	CCN(CC)c1ccc(C2NC(=O)NC(C)=C2C(=O)Nc2ccccc2)cc1 (centres undefined)	3%	0	-3	6%	1.0	-14
67	CN1CCN(c2nc3c(c(=O)[nH]c(=O)n3C)n2Cc2cccc3ccccc23)CC1	7%[15.4 µM]	1	-1	1%	-4.8	-14
68	O=C(C[C@H]1C/C=C\CC[C@H](Cc2ccc(F)cc2)C(=O)OC[C@H]2CCCN2C1=O)N[C@H](CO)Cc1ccccc1	·	1	2	-4%	2.8	·
69	CCCCOc1ccc(C2=CSC3=NCCN23)cc1[N+](=O)[O-]	4%[15.4 µM]	-13	-3	9%	-1.6	-6
